# NPYLR7 agonist – mosquito NPYLR7 agonism; activation, % at 10 µM; HEK293T NPYLR7/Galpha15, GCaMP6s calcium fluorescence; AID 1259423; 0.15% of 270,000 active; in the data active means activation above about 40%;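 further: 0% = vehicle and 100% = reference agonist at the receptor; some compounds past the cut are filed as inactive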
# NPYLR7 agonist max-min – further read-out of NPYLR7 agonist, marked with its call; activation, %; measured here: Max-Min RFU normalised activation; some inactives read as strong as hits;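 span of the calcium signal over five minutes; 0% = vehicle and 100% = native peptide agonist; compound fluorescence can raise it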
# Starred values were filed as active, the others as inactive; & = joins results of further samples. An excerpt. The share of hits here may be higher or lower than overall.
SMILES,NPYLR7 agonist,NPYLR7 agonist max-min
O=c1[nH]c2c(c3ccccc13)C(c1ccccc1)N1C=CN=CC1=N2 (centres undefined),-2,0
Cn1nc(-c2cccc(NC(=O)c3ccco3)c2)ccc1=O,0,-1
CCc1nc(C2CN(C(=O)C(C)N3CCCCCC3)CCO2)n[nH]1 (centres undefined),-25,-27
Cc1noc(-c2ccncc2)c1C(=O)NC(C)c1ccccc1 (centres undefined),24,16
NCCn1ncc2c(N3CCCC3)ncnc21,3,3
COc1ccc(CCNC(=O)C(C2CCCC2)N2CCN(C(=O)c3ccc(Cl)cc3)CC2)cc1 (centres undefined),5,3
CC1CCCCN1S(=O)(=O)NC(c1ccccc1)c1ccccn1 (centres undefined),11,9
CCN(c1ccc(F)cc1)S(=O)(=O)c1ccc2c(c1)CCN2C(C)=O,3,1
CC(=O)N1C(C)CN(S(=O)(=O)c2ccc(C)cc2)C1c1ccc(N(C)C)cc1 (centres undefined),-4,-8
CC1(C)Oc2ccc3ccc(=O)oc3c2-c2cnoc21,-3,-3
CC1CCN(c2ccc(NC(=O)COc3ccc(Cl)cc3)cc2C(=O)NCC2CCCO2)CC1 (centres undefined),19,16
CCC(C(=O)N(Cc1nc2cc(C)ccc2o1)Cc1ccccc1Cl)c1ccccc1 (centres undefined),0,1
CCOC(=O)Nc1c[n+](N2CCOCC2)no1,-11&-4&-2,-12&-10&4
CCOC(=O)C1OC2(O)CC(C(F)(F)F)(Oc3nc(C)cc(C)c32)O1 (centres undefined),-5,-9
O=C(c1c(Cl)cc(Cl)cc1Cl)N1CCN(Cc2cc(=O)c(OCc3ccc(F)cc3)co2)CC1,11,1
CCC(C)N(Cc1ccc(OS(C)(=O)=O)cc1)S(=O)(=O)c1ccccc1 (centres undefined),-6,3
CC(=O)c1cccc(CN2CCCC(O)(CO)CC2)c1 (centres undefined),4,1
OCc1nn2c(c1Br)NC(c1ccc(Br)o1)CC2C(F)(F)F (centres undefined),-1,-1
CCn1c(C)c(C)n2c3c(=O)n(CC(=O)OC)c(=O)n(C)c3nc12,-1,5
COC(=O)CCn1cc(CN2[C@@H]3CC[C@H]2CN(C)C(=O)C3)cn1,7,4
CC(=O)Cn1c(=O)c2c(nc3n2CCN3c2cccc(C)c2)n(C)c1=O,22,9
O=C1OC(c2ccc(F)cc2)=NC1=Cc1ccc(Br)cc1,2,1
CCOc1ccc(-c2ccc(OCCNS(=O)(=O)c3ccc(OCC)cc3)nn2)cc1,-7,-5
CC(NC(=O)c1csc(COc2cccc(C(F)(F)F)c2)n1)c1ccccc1 (centres undefined),-2,7
CC(C)Oc1ccc(CN2CCC2(C)C(=O)NCCc2c[nH]c3ccccc23)cc1 (centres undefined),-6,-2
# (more compounds)
SMILES,NPYLR7 agonist,NPYLR7 agonist max-min
CC1CN(S(=O)(=O)N2CC=C(c3ccccc3)CC2)CC(C)O1 (centres undefined),9,4
Cc1ccsc1-c1nccn1CCCn1ccnc1,-2,-7
Cc1ccc(CN(CCN(C)C)C(=O)CC2CNCCO2)s1 (centres undefined),21,14
CCOc1ccccc1-n1c(=O)[nH]c2c(C(N)=O)nc(-c3cccc(O)c3)nc21,13,7
CCOC(=O)C1(CCc2ccccc2)CCN(Cc2ccc(OC)cc2)CC1,8&12,6&11
O=C(c1ccc(F)cc1)N(CCCn1ccnc1)c1nc2ccccc2s1,-11,-16
O=C(Cn1cc(-c2ccccn2)cn1)Nc1ccn(Cc2ccccc2)n1,-2,3
COc1ccc(OC)c(CN(CCc2c[nH]c3ccccc23)Cc2nc(C(=O)NCc3ccccn3)co2)c1,25,24
CS(=O)(=O)c1cccc(CNc2nc(Nc3ccc4c(c3)CCC(=O)N4)ncc2C(F)(F)F)c1,-7,-8
COCc1nnc(C(=O)N(C)Cc2cc(C(C)(C)C)n[nH]2)o1,4,2
COc1ccc2c(c1)Sc1ccccc1N2CCN(C)C,8,7
COc1ccc(NC(=O)c2nnn(Cc3nc(-c4ccccc4)oc3C)c2C)cc1,4,1
Cc1nn(CCO)c(C)c1CN(C)Cc1cnn(-c2ccccc2)c1,14,3
COCCCN(CC(=O)N(Cc1ccccc1)Cc1cccn1Cc1ccc(F)cc1)C(=O)C1CCC1,-9,-1
O=C(COc1ccc(Cl)cc1)NCCCn1ncccc1=O,-7,-12
CCc1nc(CC(=O)NC2(c3ccc(F)cc3)CCCC2)cs1,-6,-6
CCCc1nc(N2CCCN(C(=O)Nc3ccc(C)c(Cl)c3)CC2)c2c(C)nn(-c3ccccc3)c2n1,9,13
CCCCN(CC(=O)Nc1c(-c2ccccc2)c(C)nn1-c1ccc(C)cc1)C(=O)Nc1cccc(Br)c1,11,13
Cc1nnc(SCC(=O)NCc2cc(CC(C)C)on2)s1,13,3
CCn1ncc(C(=O)NCCc2nc(-c3ccc(Cl)cc3)no2)c1C,21,11
Cn1c(=O)[nH]c2c3c(sc2c1=O)CC(C)(C)OC3,-10,-17
O=C(NCC1Cc2cccc(-c3cnccn3)c2O1)C1CCCc2c1[nH]c1ccccc21 (centres undefined),22,12
O=C1NCCc2c(OCc3ccccc3Cl)cccc21,3,0
CCc1cc(Oc2ccc([N+](=O)[O-])cc2)nc(SCc2ccc(C(C)(C)C)cc2)n1,2,9
Cc1noc(C(C)NC(=O)c2ccc(Oc3ccc(Br)cc3)nc2)n1 (centres undefined),4,1
# The listing continues:
SMILES,NPYLR7 agonist,NPYLR7 agonist max-min
c1ccc(CO/N=C2\CCn3cccc32)cc1,3,4
Cc1ccc2cc(CCNC(=O)c3ccc(C(C)(C)C)cc3)c(=O)[nH]c2c1C,2,0
CC(Sc1nnnn1-c1ccccc1)C(=O)N(C)C (centres undefined),-9,-10
CC(NCC(c1cccs1)N(C)C)c1nc(C(C)(C)C)no1 (centres undefined),-2,-4
Clc1ccc(Nc2nc(-c3ccccn3)cs2)nc1,3,1
COC(=O)c1ccc(CS(=O)(=O)N2CCCC(N(C)C)C2)cc1 (centres undefined),1,-4
CN(C)[C@@H]1C[C@@H](C(=O)O)N(Cc2ncc[nH]2)C1,4,0
O=c1cc(CSc2ccc(F)c(F)c2)nc2ccc(Br)cn12,7,10
OC[C@@H]1CN2CCN(Cc3ccc(F)cc3)C[C@@H]2[C@H]1c1ccccc1,8,17
Cn1ccn2ncc(C(=O)NCCc3csc(-c4cccnc4)n3)c12,-4,-5
CSc1ccccc1NC(=O)C(C)Sc1ncn[nH]1 (centres undefined),3,-7
N#Cc1cccc(CN2C(=O)C3(SCCN3C(=O)Nc3cccc(F)c3)c3cc(F)ccc32)c1 (centres undefined),21,18
COc1ccccc1C(=O)C1CCCN(C(=O)Cn2nc3ccccc3n2)C1 (centres undefined),8,5
N#CC1C(=N)SC(=N)C(C#N)C1c1ccccc1Br (centres undefined),1,-1
C=CCN(CC1CC(c2ccccc2)=NO1)CC(C)(O)C=C (centres undefined),2,7
COCCNC(=O)[C@@H](C)N1Cc2ccc(N3CCOCC3)nc2C1=O,3,0
CC(=O)N1CCCN(C2CN(CC(O)c3ccccc3)CC2C)CC1 (centres undefined),1,-2
CCCCN(CC(=O)N(CCc1ccc(OC)c(OC)c1)Cc1cccs1)C(=O)c1cccc(OC)c1,2,11
Cc1ccc(S(=O)(=O)c2ccc(/C=N\Nc3nc(-c4ccccc4)c4cc(Br)ccc4n3)cc2[N+](=O)[O-])cc1,11,5
COc1ccc(OC)c(NC(=O)c2ccc(-n3nc(-c4cccc(C(F)(F)F)c4)cc3N)cc2)c1,-4,-8
Cc1ccc(-n2ncc3c2CCCC3NC(=O)CCC(F)(F)F)cc1C (centres undefined),1,2
CCS(=O)(=O)c1cccc(C(=O)N(Cc2ccccn2)c2nc3c(C)c(C)ccc3s2)c1,2,1
COc1ccc(Oc2cnn(-c3ccc(F)cc3)c(=O)c2Nc2ccc(C(=O)NCc3ccncc3)cc2)cc1,5,2
COc1cc(C)c(Br)cc1S(=O)(=O)n1ccnc1C(C)C,4,2
O=C(NCc1ccc(-c2ccccc2F)o1)N1CCC2(CC1)OCCO2,1&3,0&18

# 20 entries out of the list, sorted by formula weight, lowest first:
SMILES,NPYLR7 agonist,NPYLR7 agonist max-min
c1ccc(CO/N=C2\CCn3cccc32)cc1,3,4
CN(C)[C@@H]1C[C@@H](C(=O)O)N(Cc2ncc[nH]2)C1,4,0
CC(Sc1nnnn1-c1ccccc1)C(=O)N(C)C (centres undefined),-9,-10
Clc1ccc(Nc2nc(-c3ccccn3)cs2)nc1,3,1
C=CCN(CC1CC(c2ccccc2)=NO1)CC(C)(O)C=C (centres undefined),2,7
CC(NCC(c1cccs1)N(C)C)c1nc(C(C)(C)C)no1 (centres undefined),-2,-4
N#CC1C(=N)SC(=N)C(C#N)C1c1ccccc1Br (centres undefined),1,-1
OC[C@@H]1CN2CCN(Cc3ccc(F)cc3)C[C@@H]2[C@H]1c1ccccc1,8,17
CC(=O)N1CCCN(C2CN(CC(O)c3ccccc3)CC2C)CC1 (centres undefined),1,-2
COCCNC(=O)[C@@H](C)N1Cc2ccc(N3CCOCC3)nc2C1=O,3,0
O=C(NCc1ccc(-c2ccccc2F)o1)N1CCC2(CC1)OCCO2,1&3,0&18
Cc1ccc(-n2ncc3c2CCCC3NC(=O)CCC(F)(F)F)cc1C (centres undefined),1,2
COc1cc(C)c(Br)cc1S(=O)(=O)n1ccnc1C(C)C,4,2
Cc1ccc2cc(CCNC(=O)c3ccc(C(C)(C)C)cc3)c(=O)[nH]c2c1C,2,0
O=c1cc(CSc2ccc(F)c(F)c2)nc2ccc(Br)cn12,7,10
CCS(=O)(=O)c1cccc(C(=O)N(Cc2ccccn2)c2nc3c(C)c(C)ccc3s2)c1,2,1
COc1ccc(OC)c(NC(=O)c2ccc(-n3nc(-c4cccc(C(F)(F)F)c4)cc3N)cc2)c1,-4,-8
CCCCN(CC(=O)N(CCc1ccc(OC)c(OC)c1)Cc1cccs1)C(=O)c1cccc(OC)c1,2,11
COc1ccc(Oc2cnn(-c3ccc(F)cc3)c(=O)c2Nc2ccc(C(=O)NCc3ccncc3)cc2)cc1,5,2
Cc1ccc(S(=O)(=O)c2ccc(/C=N\Nc3nc(-c4ccccc4)c4cc(Br)ccc4n3)cc2[N+](=O)[O-])cc1,11,5

# A different layout for 2 compounds above.
# Results follow in this order: NPYLR7 agonist | NPYLR7 agonist max-min
- CC(NCC(c1cccs1)N(C)C)c1nc(C(C)(C)C)no1 (centres undefined)
 : -2 | -4
- Clc1ccc(Nc2nc(-c3ccccn3)cs2)nc1
 : 3 | 1

# The listing continues:
SMILES,NPYLR7 agonist,NPYLR7 agonist max-min
O=C(Cn1c(=O)oc2ccc(Cl)cc21)N1CCc2ccccc21,-1,5
COc1cccc(C(=O)N2CCCC(OCc3ccc(F)c(F)c3)C2)c1 (centres undefined),-4,-3
COc1ccc(CC2CCN(C(=O)C34CC[C@@](C)(C(=O)O3)C4(C)C)CC2)cc1,1,4
COc1cccc2cc(-c3cc(=O)oc4cc(C)c(OCC(N)=O)cc34)oc12,1,-6
CCN1CCC(CNC(=O)c2cc(C)nc3onc(C)c23)CC1,-19,-24
C[C@H](C(=O)NC1CC1)N1Cc2ccc(N3CCOCC3)nc2C1=O,13,8
CCCCn1c(SC(C)C(=O)Nc2ccc(C#N)cc2)n[nH]c1=O (centres undefined),8,7
Cc1nc2c(cc1C(=O)NC1=NCCS1)c(C)nn2C,-2,-2
COc1ccc(C(=O)NC(C(=O)NC2CC2)C2CCN(C(=O)Nc3cccc(Cl)c3)CC2)cc1 (centres undefined),9,10
Cc1ccc(OCc2ccc(-c3nc(C#N)c(NCc4ccc5c(c4)OCO5)o3)o2)cc1,0,12
COc1cccc(CN2CCCC3(CCN(Cc4cnc(C)nc4)C3)C2=O)c1 (centres undefined),1,-1
CS(=O)(=O)NCC1CCCN(CCSc2ccccc2)C1 (centres undefined),4,4
Cc1ccc(C(=O)N2CCCCC2C)s1 (centres undefined),0,-1
COc1cccc(CN(C)Cc2cc(C(C)(C)C)n[nH]2)c1O,2,-3
Nc1ncnc2sc3c(c12)CCC3,-12,-16
Cc1ccc(N=C2NC(=O)/C(=C\c3c(C)nc4sccn34)S2)c(C)c1,-1,2
Cc1cc(N=Cc2cc(Cl)cc(Br)c2O)no1,0,0
CC(C)c1ccccc1NC(=S)N(CCC#N)CCC#N,5,1
COc1ccc(OC)c(NC(=O)NCCN2CCCCC2)c1,4,0
COCCC1CN(c2nc(CCN)nc3ccccc23)CCO1 (centres undefined),3,3
COCCn1c(-c2ccc3c(c2)CC(=O)N3)csc1=Nc1cccc(NC(C)=O)c1,6,4
N#Cc1cccc(NC(=O)CN2CCC3(CC2)OCc2ccccc23)c1,0,24
CCOc1ccc2nc(N3CCCC(C(=O)NCCc4nc(C)c5c(n4)CCCC5)C3)nc(C)c2c1 (centres undefined),-5&4,-7&-2
O=[N+]([O-])c1ccc(N2CCN(C(=S)NC3Cc4ccccc4C3)CC2)cc1,-1,-5
Cn1c(SCC(=O)NCc2ccc(F)cc2)nc2c(-c3ccccc3)c[nH]c2c1=O,-3,-10
# Next records.
SMILES,NPYLR7 agonist,NPYLR7 agonist max-min
Cc1nc2sccn2c1C(=O)NCc1ccc2c(c1)OCO2,9,-6
COc1cccc(CNC(=O)C2CCN(C(=O)CCNC(=O)C3CC3c3ccccc3)CC2)c1 (centres undefined),38,33
CC(C(=O)NC1CCCCC1)N1CCN(S(=O)(=O)c2cccc(Cl)c2Cl)CC1 (centres undefined),-11,-12
COc1ccc(C(=O)N2C[C@@H](C)O[C@@H](C)C2)cc1OC1CCN(C(C)=O)CC1,2,1
N#Cc1c(-c2cccs2)cc(C2CC2)[nH]c1=S,-1,41
COc1ccc(CCN(Cc2ccc(C)o2)C(=O)CNC2CCCCC2)cc1OC,-10,-17
Cn1cc(C(=O)NCCCN2CCCC2=O)c2[nH]c(=O)n(-c3ccccc3)c(=O)c21,3,0
COc1ccc(C(=O)NCc2ccccn2)cc1[N+](=O)[O-],6,4
